# Bst PK mod = Pyruvate Kinase; partly purified Bacillus stearothermophilus pyruvate kinase, luminescence ATP production; ribose 5-phosphate activator present at AC10; Potency, µM; 51,000 tested, 1.2% active; in the data active means potency below about 11 µM; inconclusive means mostly about 12 µM to 25 µM; inactive means weaker than that;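 the screen sought inhibitors and activators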;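 further: potency means the concentration at half of the fitted maximal effect; scaled between full activation by ribose 5 phosphate and full inhibition by luteolin; about four in five hits inhibit and the cells do not say which; series up to 57 µM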
# TsaE inh = qHTS Assay for Inhibitors of YjeE | tRNA threonylcarbamoyladenosine biosynthesis protein TsaE (Escherichia coli (strain … | Potency, µM | 71,000 tested, 0.05% active | purified YjeE, fluorescence polarisation of a bound ADP probe; active = well fitted falling curve; inconclusive = weaker or top-dose-only fall, or a rising curve; inactive = flat or poorly fitted curve;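 further: top concentration of the series not given in the record; excess ADP was the control for the full effect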
#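 Purified YjeE (10 uM) with BODIPY Texas Red-labeled ADP probe (2 uM); compounds pin-transferred, 15 min at room temperature. Binding inhibition read as decreased fluorescence polarization; ADP titration as control.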
# * = called active by the depositor; i = inactive; ? = inconclusive; nt = not tested or not shown. Only part of the results is shown; rates above refer to the full screens.
Bst PK mod | TsaE inh | SMILES
>57 | i | COc1ccc(C(=O)Nn2c(SCC(=O)NCC3CCCO3)nc3ccccc3c2=O)cc1 (centres undefined)
>57 | i | COc1ccc(NC(=O)N2CCN(S(C)(=O)=O)CC2)cc1OC
>57 | i | Cn1nc(-c2ccc(OCC(=O)NCC3CCCO3)cc2)c2ccccc2c1=O (centres undefined)
>57 | i | O=C(Nc1cccc(Cl)c1N1CCCC1)c1ccc(Br)o1
>57 | i | O=C(CSc1nnc(-c2cccs2)n1CC1CCCO1)c1cc2ccccc2o1 (centres undefined)
nt | i | Cc1ccc2oc(=O)c3cc(C(=O)NCc4ccco4)sc3c2c1
>25.6 | nt | O=C(NCc1ccco1)c1cnn2c1NC(c1ccccc1)CC2C(F)(F)F (centres undefined)
nt | i | CCOc1ccc2nc(NC(=O)Nc3cccs3)sc2c1
>57 | i | COc1ccc(CCNC(=O)CN2CCN(c3cccc(Cl)c3)CC2)cc1OC
>57 | i | CCC1S/C(=C(\C#N)C(=O)NCc2ccco2)N(c2ccc(F)cc2)C1=O (centres undefined)
nt | i | CC(=O)NCCNc1ncnc2ccc(-c3ccccc3Cl)cc12
>57 | i | CCOC(=O)c1cc2sc(C)cc2n1CC(=O)Nc1cccc(C)c1C
>57 | i | CCN1CCCC1CNCc1ccc(Cl)cc1Cl (centres undefined)
nt | i | O=C(CN1CCN(Cc2ccc(Cl)cc2)C1=O)NCCN1CCCC1
>57 | i | O=C(NCc1ccccc1)NC1(C(=O)N2CCCC2)CCCCC1
>57 | i | CN(C)c1ccc(CN(C(=O)c2ccco2)C2CCS(=O)(=O)C2)cc1 (centres undefined)
>57 | i | COc1ccc2c(c1OC)C(=O)OC2CC(=O)c1ccc2c(c1)OCO2 (centres undefined)
>57 | i | O=C(Nc1ccc2nn(-c3ccccc3)nc2c1)c1ccc2c(c1)OCO2
>57 | i | CC(C)COc1cc(=O)[nH]c(SCC(C)C)n1
>57 | i | CCNc1cc(=O)n(C)c(=O)n1C
>57 | i | COC(=O)c1ccccc1NC(=O)COC(=O)c1ccc(C)c(NC(=O)c2ccco2)c1
>57 | i | COc1ccc2[nH]c(=O)c(-c3noc(-c4ccccc4)n3)cc2c1
>57 | i | Cc1ccc(C(=O)CSc2nnc(COc3cccc(C)c3)o2)cc1
>57 | i | CC1(C)CC2CC(C)(CN2C(=O)COC(=O)Cn2[nH]c(=O)c3ccccc3c2=O)C1 (centres undefined)
>57 | i | N#Cc1nc(Cc2ccccc2)oc1N1CCC(C(N)=O)CC1
nt | i | COC(=O)c1nc2cc(C)ccn2c1F
>57 | i | CC(=O)N1CCc2cc(S(=O)(=O)NCCC(=O)Nc3cccc(C)c3)ccc21
nt | i | Cc1cccn2c(=O)c3cc(C(=O)NCCN4CCOCC4)c(=N)n(CCc4ccccc4)c3nc12
nt | i | CCOc1ccccc1NC(=O)Cn1cnc2c(nnn2-c2cccc(OC)c2)c1=O
>57 | i | CC(C)N(CCCNC(=O)C1CCN(S(=O)(=O)N2CCOCC2)CC1)Cc1ccccc1
>57 | i | CCN(CC)c1ncnc2sc(C(=O)N3CCN(c4ccc(OC)cc4)CC3)c(C)c12
>57 | i | CCN(CC)CCCN1C(=O)C(O)=C(C(=O)c2ccco2)C1c1ccc(C)o1 (centres undefined)
nt | i | O=c1oc2ccccc2n1CCCOc1ccccc1
nt | i | CN(C)c1nc(N2CCCCC2)nc(N2CCCCC2)n1
>57 | i | Cc1c(C(=O)N2CCOCC2)oc2ccc(S(=O)(=O)N3CCCC3)cc12
>57 | i | COCCn1c(C)cc(C(=O)COC(=O)c2ccc(-n3nc(C)cc3C)cc2)c1C
>57 | i | CCC1CCCCN1CCNS(=O)(=O)c1ccc2c(c1)CCN2C(C)=O (centres undefined)
nt | i | COC(=O)[C@@]1(Cc2ccc(OC)cc2)[C@H]2c3cc(C(=O)N(C)C)n(CCc4ccccn4)c3C[C@H]2CN1C(=O)c1ccccc1
nt | i | Cc1ccc(C2c3c(oc4ccc(Cl)cc4c3=O)C(=O)N2CCCN2CCOCC2)o1 (centres undefined)
nt | i | S=C(c1ccc(-c2cccc(Cl)c2)o1)N1CCOCC1
nt | i | COc1cc(CNC(=O)c2ccc(Cn3nc(C)c(Cl)c3C)o2)cc(OC)c1
i | i | COc1cc(C)c(S(=O)(=O)NCc2cccs2)cc1C
>57 | i | COc1ccccc1N1CCN(S(=O)(=O)Cc2ccccc2Cl)CC1
nt | i | CCOc1ccc(C(=O)c2ccc(OCC)c(N)c2)cc1N
>11.4 | nt | CCN1CCc2c(C#N)c(N3CCCCC3)nc(NCc3ccccc3)c2C1
nt | i | CCCC(NS(=O)(=O)c1ccc(OC)cc1)C(=O)O (centres undefined)
>57 | i | c1ccc2oc(-c3nn4c(Cn5cnc6ccccc65)nnc4s3)cc2c1
nt | i | O=C(O)CCCC[C@@H]1SC[C@H]2NC(=O)N[C@H]12
>57 | i | Cc1cc(C)cc(-n2nnc(C(=O)NCc3ccc(Cl)cc3)c2N)c1
nt | i | CCOC(=O)COc1ccc(N)cc1CC(NC(C)=O)(C(=O)OCC)C(=O)OCC
nt | i | CC(C)Sc1nc2c(cnn2-c2ccc(F)cc2)c(=O)[nH]1
>57 | i | CC1(C)Cc2ccccc2C(/C(=N/O)C(N)=O)=N1
>57 | i | CCc1ccc2[nH]c(=O)c(C(c3nnnn3CCOC)N3CCN(c4ccc(F)cc4)CC3)cc2c1 (centres undefined)
nt | i | O=C(COc1ccccc1)Nc1ccc2c(c1)nc1n2CCSC1
>57 | i | Cc1ccccc1-n1nnnc1SCC(=O)Nc1ccc(S(=O)(=O)N2CCCC2)cc1
>57 | i | Cn1cccc1C(=O)NC(=O)COC(=O)c1ccccc1Sc1ccccc1C#N
>57 | i | O=C1C(SC(F)(F)C(F)F)=C(C(F)(F)F)OC2C3C=CC(C3)C12 (centres undefined)
>57 | i | Clc1ccccc1Cn1nnc2c(Nc3ccccc3)ncnc21
>57 | i | COc1cc(NC(=O)c2ncn[nH]2)cc(OC)c1OC
>57 | i | Cc1nnc(SCCn2c(N3CC(C)CC(C)C3)nc3c2c(=O)n(C)c(=O)n3C)s1 (centres undefined)

# Not a retest: entries from further up.
Bst PK mod | TsaE inh | SMILES
>57 | i | CCN(CC)c1ncnc2sc(C(=O)N3CCN(c4ccc(OC)cc4)CC3)c(C)c12
>57 | i | CCN(CC)CCCN1C(=O)C(O)=C(C(=O)c2ccco2)C1c1ccc(C)o1 (centres undefined)

# Returning to the listing, repeating the 6 entries before the break.
Bst PK mod | TsaE inh | SMILES
>57 | i | Cc1ccccc1-n1nnnc1SCC(=O)Nc1ccc(S(=O)(=O)N2CCCC2)cc1
>57 | i | Cn1cccc1C(=O)NC(=O)COC(=O)c1ccccc1Sc1ccccc1C#N
>57 | i | O=C1C(SC(F)(F)C(F)F)=C(C(F)(F)F)OC2C3C=CC(C3)C12 (centres undefined)
>57 | i | Clc1ccccc1Cn1nnc2c(Nc3ccccc3)ncnc21
>57 | i | COc1cc(NC(=O)c2ncn[nH]2)cc(OC)c1OC
>57 | i | Cc1nnc(SCCn2c(N3CC(C)CC(C)C3)nc3c2c(=O)n(C)c(=O)n3C)s1 (centres undefined)
nt | i | COc1cc(NS(=O)(=O)c2ccc(NS(=O)(=O)c3ccccc3)cc2)nc(OC)n1
>57 | i | COc1ccccc1-n1c(SCC(=O)O)nnc1-c1ccc(S(=O)(=O)N2CCCCC2)cc1
>57 | i | CCOC(=O)c1cccc(NC(=O)CSc2nnnn2C)c1
>57 | i | CCCC1CC(C)(C(=O)Cn2[nH]c(=O)ccc2=O)OC1=O (centres undefined)
>57 | i | COc1ccc(OC)c(S(=O)(=O)NCc2cn3cccc(C)c3n2)c1
nt | i | COc1ccccc1-c1nccc(NC2CCNCC2)n1
nt | i | CCCNC(=O)c1cc(-c2ccc(O)cc2)on1
>57 | i | CC(C)CC1(C)NC(=O)N(CC(=O)NC(=O)Nc2ccc3c(c2)OCCO3)C1=O (centres undefined)
>57 | i | COc1cccc(N2CC(C(=O)NC3CCCCC3)CC2=O)c1 (centres undefined)
>57 | i | O=C(O)C1CCCN1c1ncnc2c1oc1ccccc12 (centres undefined)
>57 | i | Cn1c(=O)cc(OCCCC(=O)N2CCN(c3ccccc3)CC2)c2ccccc21
>57 | i | Cc1cc2c(c(=O)n1Cc1cccnc1)C(Cc1ccccc1)C(C#N)=C(N)O2 (centres undefined)
>57 | i | Cc1ccc2nc(C)cc(OCC(=O)O)c2c1
nt | i | COc1cccc(CSCC(=O)O)c1
nt | i | Nc1nc2sc3c(c2cc1C(=O)N1CCOCC1)CCCC3
>57 | i | CCOc1ccc(C(=O)Nc2c3c(nn2-c2ccc(F)cc2)CS(=O)C3)cc1 (centres undefined)
? | i | CCCn1c(NCc2cc(OC)ccc2OC)nc2ccccc21
>57 | i | CN1CCN(S(=O)(=O)c2ccc(Cc3ccc(S(=O)(=O)N4CCN(C)CC4)cc3)cc2)CC1
nt | i | CN1C(=O)C(O)(CC(=O)c2ccccc2O)c2cc(Br)ccc21 (centres undefined)
>57 | i | CCOC(=O)N1CCN(C(=O)CSc2nnc(-c3cc(OC)cc(OC)c3)o2)CC1
nt | i | CC(=O)CC(=O)Nc1cccc2c1CCCC2
nt | i | c1ccc2[nH]c(CSc3ncnc4c3oc3ccccc34)nc2c1
>57 | i | O=C(NCC(F)(F)F)Nc1ncccn1
>57 | i | Cn1nnnc1SCC(=O)NC(C)(C)C
>57 | i | CS(=O)(=O)N(CC(N)=O)Cc1ccc(Cl)cc1
>57 | i | COC(=O)c1c(C)[nH]c(C(=O)CN2CCOCC2)c1C
nt | i | CCCC[C@@H]1C[C@H]1C(NC(=O)c1ccc(-c2ccccc2)cc1)c1ccc(-c2ccccc2)cc1 (some centres undefined)
nt | i | O=C(C1CCN(S(=O)(=O)c2cccc3cccnc23)CC1)N1CC=C(c2ccccc2)CC1
nt | i | Cc1c(C(=O)NCc2ccccc2)oc2ccc(S(=O)(=O)N3CCCC3)cc12
nt | i | CC(NC(=O)NC1CCCCC1)C(c1cccs1)N1CCN(C)CC1 (centres undefined)

# Whole records, looked up by structure.
# `CCN1CCCC1CNCc1ccc(Cl)cc1Cl` (centres undefined) as listed: Bst PK mod = >57; TsaE inh = i
# `CCOc1ccc(C(=O)Nc2c3c(nn2-c2ccc(F)cc2)CS(=O)C3)cc1` (centres undefined) as listed: Bst PK mod = >57; TsaE inh = i

# The list goes on.
Bst PK mod | TsaE inh | SMILES
>57 | i | CCc1c(C)sc(NC(=O)c2cnn3cccnc23)c1C#N
>57 | i | Cc1ccc(S(=O)(=O)N2CCCC(C(=O)NCCCN3CCCCC3C)C2)cc1 (centres undefined)
>11.4 | i | N#Cc1nn(-c2ccccc2)nc1N1CCCCC1
nt | i | O=C(NCCN1CCCCCC1)c1ccc(CS(=O)(=O)c2ccc(Br)cc2)o1
>11.4 | i | COc1ccc2c(C(=O)CN3CC(C)OC(C)C3)c[nH]c2c1 (centres undefined)
>57 | i | CCC1(C)COC2(OC1)C(=O)Nc1ccccc12 (centres undefined)
>57 | i | Cc1nn(C)c(C)c1NC(=O)CSc1nc(Cc2ccccc2)nc2c1cnn2-c1ccccc1
>57 | i | O=C(CSc1nnnn1C1CCCCC1)N1CCCC1
nt | i | COc1ccc(-c2[nH]ncc2-c2cnc(C)s2)c(O)c1
nt | i | Cc1cccc(C)c1NC(=O)c1c(-c2ccccc2)noc1C
>57 | i | Cc1cccc(CNC(=O)c2ccccc2N)c1
>57 | i | O=C(Nc1cccc(C(=O)N2CCOCC2)c1)c1cncc(Br)c1
i | i | Clc1ccc2nc(N3CCCCC3)[nH]c2c1
nt | i | Nc1ncnc2c1nc(Sc1ccc(Cl)cc1)n2[C@@H]1O[C@H]2COP(=O)(O)O[C@@H]2[C@H]1O
>57 | i | O=C(COC(=O)Cc1cccc(C(F)(F)F)c1)NCC1CCCO1 (centres undefined)
>57 | i | O=C(OC(C(=O)NCc1ccc2c(c1)OCO2)c1ccc(Cl)cc1)c1ccco1 (centres undefined)
>57 | i | O=C(OCc1ccco1)c1ccc(S(=O)(=O)N2CCCCC2)cc1
nt | i | CN(C)C(=O)c1ccc(-c2nc(NCc3ccccc3)c3ccccc3n2)cc1
>57 | i | C=CCOc1ccccc1CNn1nnnc1N
nt | i | Cc1ccc(C)n1-n1c(C)nc2sc(-c3ccccc3)cc2c1=O
nt | i | O=S(=O)(c1ccccc1)N1CCN(C2CCN(Cc3ccccc3)CC2)CC1
>25.6 | nt | CC1(C)Cc2c(c(N3CCCCC3)[nH]c(=S)c2C#N)CS1
>57 | i | Cc1sc2nc(CN(CCc3ccccc3)C(=O)c3ccco3)[nH]c(=O)c2c1C
>57 | i | CCOC(=O)c1ccccc1NC(=O)CN1C(=O)CCS(=O)(=O)c2ccccc21
>57 | i | COC(=O)[C@@H](NC(=O)N(C1CCCCC1)C1CCCCC1)C(C)C
>57 | i | O=C(O)CSc1ccccn1
>57 | i | Nc1nonc1N1CCCCC1
nt | i | Cc1ccc(C(=O)NCCCn2ccnc2)o1
>57 | i | CN(C)c1ccc(-c2nn3c(-c4ccc(Cl)cc4Cl)nnc3s2)cc1
nt | i | CCOC(=O)CSc1nc2c(c(-c3ccc(C)o3)c1C#N)CCCC2
nt | i | CCC(C)N1CC(O)=C(c2nc3ccccc3[nH]2)C1=N (centres undefined)
nt | i | CCCNS(=O)(=O)c1cccc2cccnc12
>57 | i | O=C(CN1CCN(Cc2ccccc2)CC1)NC(=O)NC1CCCCC1
>57 | i | CCC(=O)c1ccc(OCCN2CCOCC2)cc1
>57 | i | Cc1cccc(N2CCCn3c2nc2c3c(=O)n(CCN3CCOCC3)c(=O)n2C)c1
>57 | i | CCn1c(N)c(C(=O)NCc2ccco2)sc1=S
? | i | CCOc1ccc(-c2noc(-c3cccnc3)n2)cc1OC

# High-throughput results (PubChem BioAssay)
